Screening data: PubChem BioAssay, ICCB-Longwood Screening Facility, Harvard Medical School
Polio RdRp inh = poliovirus RdRp elongation inhibitors, primary screen, biochemical, fluorescence polarization, total intensity. hit rate 0.66% among 150,000. % elongation, % (compound at 16.7 µg/mL). Genome polyprotein (Poliovirus type 1 (strain Mahoney)), P03300. poliovirus polymerase elongation; active compounds read low; in the data active = % elongation below about 90%; note: some results filed as inactive read as strong as hits
Target sequence (P03300 1749-2209 limits assumed): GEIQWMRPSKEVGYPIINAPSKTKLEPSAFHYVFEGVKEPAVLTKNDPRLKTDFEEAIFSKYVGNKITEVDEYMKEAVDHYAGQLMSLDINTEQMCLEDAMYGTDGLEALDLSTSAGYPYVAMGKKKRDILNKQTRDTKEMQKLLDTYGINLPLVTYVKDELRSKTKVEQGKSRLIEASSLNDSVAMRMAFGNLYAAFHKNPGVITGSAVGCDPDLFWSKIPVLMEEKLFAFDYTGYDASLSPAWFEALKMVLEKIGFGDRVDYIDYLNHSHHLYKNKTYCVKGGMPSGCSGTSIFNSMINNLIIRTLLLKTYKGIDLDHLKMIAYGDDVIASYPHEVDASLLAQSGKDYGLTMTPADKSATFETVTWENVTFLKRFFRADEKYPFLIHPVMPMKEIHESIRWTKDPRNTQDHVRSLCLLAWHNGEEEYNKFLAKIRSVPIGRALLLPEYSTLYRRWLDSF
Mtb MbtI inh = MbtI salicylate synthase inhibitors, primary screen, biochemical, fluorescence intensity | purified MbtI enzyme, fluorescence intensity read-out | inhibition, %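 (about 17 µg/mL by stock and volumes)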 | hit rate 0.89% among 100,000;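 active = above 50% in both replicates, above 80% if mildly self-fluorescent; inactive = the rest, strongly fluorescent compounds included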;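 note: 0% = mean of negative and 100% = mean of positive controls; one replicate is shown; some compounds called inactive have numbers as strong as hits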
Target sequence (P9WFX0 whole entry, looked up): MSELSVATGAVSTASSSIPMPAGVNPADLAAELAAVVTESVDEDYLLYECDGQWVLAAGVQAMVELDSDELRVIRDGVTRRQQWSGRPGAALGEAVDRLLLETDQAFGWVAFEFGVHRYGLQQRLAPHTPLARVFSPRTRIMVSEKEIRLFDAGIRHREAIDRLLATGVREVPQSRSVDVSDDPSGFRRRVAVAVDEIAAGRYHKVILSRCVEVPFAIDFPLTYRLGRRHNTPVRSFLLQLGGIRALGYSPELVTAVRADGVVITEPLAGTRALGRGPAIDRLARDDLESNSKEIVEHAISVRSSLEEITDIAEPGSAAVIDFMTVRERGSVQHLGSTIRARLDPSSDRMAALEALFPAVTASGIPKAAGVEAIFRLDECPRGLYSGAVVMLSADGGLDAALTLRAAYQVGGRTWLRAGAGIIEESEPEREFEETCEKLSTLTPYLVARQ
MenB inh = M. tuberculosis MenB inhibitors, primary screen, biochemical, absorbance; MenB enzyme assay, absorbance read-out; some hits fall short of the stated cut; inhibition, %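 (about 12 µg/mL by stock and volumes)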; hit rate 0.43% among 100,000; AID 540299, 2011;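 active = mean of two replicates above 30%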;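 note: 0% = no compound and 100% = wells with inactive enzyme; the first replicate is given; strong numbers were not always called active; inactives centre near -10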
Polio RdRp inh intensity = second read-out of Polio RdRp inh, no call of its own (marks repeat the call); % elongation; measured here: total intensity read-out; formula for this scale not given here;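 total fluorescence in place of polarization; lower means less elongation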
* = called active by the depositor; · = no result given; & = joins results of further samples.

Each structure is followed by: Mtb MbtI inh	MenB inh	Polio RdRp inh intensity	Polio RdRp inh
> N/C(=N\c1nc2ccccc2o1)NC(=O)C(Sc1ccccc1)c1ccccc1 (configuration not stated)
    -4	-42	109	105
> O=C(c1c(Cl)nc2sccn12)N1CCN(Cc2ccccc2)CC1
    -11	·	106	105
> O=C(O)CNC(=O)c1ccc(NS(=O)(=O)c2ccc(Br)cc2)cc1
    19	-11	108	103
> CSc1cccc(NC(=O)N(Cc2ccccc2)C(=O)CC#N)c1
    -11	-3	153	120
> CCC(C)(C)NC(=O)COc1ccc2c(C)cc(=O)oc2c1
    85	·	103	99
> CC1(C)OC(=O)C(=Cc2cc3ccccc3o2)C(=O)O1
    34	2	99	99
> CCc1ccc(N2C(=O)CN(Cc3ccccc3)C2=S)cc1
    -5	-24	107	103
> C#CCn1c(O)c(N=NC(=O)c2ccncc2)c2cc(Br)ccc21
    -5	-54	97	102
> COC(=O)c1ccc(NC(=O)Nc2ccccc2)cc1
    ·	-6	110	99
> FC(F)(F)c1ccc(C=Nc2cc(Cl)cc(Cl)c2)cc1
    -1	-11	103	95
> O=C1CCCC/C1=C/Nc1ccc(Cl)cn1
    6	-15	109	95
> O=C1O/C(=C/C=C2/OC(=O)c3ccccc32)c2ccccc21
    ·	-5	227	83
> NC(=O)CC1Nc2cccc3cccc(c23)NC1=O (configuration not stated)
    10	9	102	96
> Fc1ccc(N2CCN(Cc3cccs3)CC2)cc1
    -12	-5	102	102
> Cc1cc(/N=C/C=C2\N(C)c3ccccc3C2(C)C)n(CCC#N)n1
    7	·	104	102
> CCCSc1nnc(Cn2c(=O)sc3ccccc32)n1-c1ccccc1
    3	-18	97	102
> Cc1nc(SCC(=O)NC(C)(C#N)C(C)C)n(CC(C)C)c1C (configuration not stated)
    10	-14	96	99
> COc1ccccc1/C=N/NC(=O)c1ccc(=O)n(C)c1
    -28	0	111	101
> O=C(c1ccco1)N1CCN(C(c2coc3ccc(Cl)cc3c2=O)c2nnnn2C2CCCC2)CC1 (configuration not stated)
    -17	-22	103	102
> CCCCCCn1c(COc2ccccc2F)nnc1SCc1cc(=O)n2ccsc2n1
    -8	-46	107	105

New compounds follow.
Each structure is followed by: Mtb MbtI inh	MenB inh	Polio RdRp inh intensity	Polio RdRp inh
> CCN(CC)C(=S)SCc1nc(N)nc(Nc2ccccc2)n1
    1	-20	100	102
> CCS(=O)(=O)c1ccsc1S(=O)(=O)CC
    ·	-11	106	103
> Cc1ccc(Nc2cc(C(=O)N3CCCC3)c3ccccc3n2)cc1C
    -10	-15	96	101
> CCCCn1c(C(C)NC(=O)COc2ccccc2)nc2ccccc21 (configuration not stated)
    -7	-20	101	102
> O=C(CSc1nnc(Cc2ccccc2)o1)N1CCCC1c1ccc2c(c1)OCCCO2 (configuration not stated)
    -4	-12	103	100
> CC(=O)OC[C@H]1O[C@@H](Nc2ccc(C)cc2)[C@H](OC(C)=O)[C@@H](OC(C)=O)[C@@H]1OC(C)=O
    -11	-3	111	106
> Cc1c2cnn(CC(=O)N3CCc4ccccc43)c(=O)c2c(C)n1Cc1ccc(Cl)cc1
    -13	2	107	102
> O=C(O)Cn1ccc2ccccc21
    6	-18	100	97
> CC(C(=O)Nc1ccccc1)N1C(=O)c2ccccc2C1=O (configuration not stated)
    -7	-22	103	102
> COc1cccc(C(=O)NC(C)C(c2cccs2)N2CCN(C)CC2)c1 (configuration not stated)
    -8	-20	105	103
> O=C(Cc1c(Cl)cccc1Cl)OCc1ccccn1
    -6	-22	106	106
> CC(=O)SCC(=O)N=c1sc2cc(F)ccc2n1C
    -3	-20	109	103
> CCc1cc2c(NCCO)ncnc2s1
    ·	-5	122	114
> O=C(O)Cc1coc2cc(O)ccc12
    -15	-23	104	97
> C=CCN(CC=C)S(=O)(=O)c1ccc(/C(O)=C(/C#N)c2nc3ccccc3[nH]2)cc1
    38	-16	101	99
> O=C(NCc1nc(-c2ccc(Cl)cc2)no1)NC1CCCCC1
    -9	-9	106	103
> COc1ccc(C2CC(=O)c3cnn(-c4nc5ccccc5s4)c3C2)cc1 (configuration not stated)
    -6	-10	100	100
> COC(=O)c1ccc(C)c(NC(=O)C(OC)c2ccccc2)c1 (configuration not stated)
    -16	-20	104	101
> O=C(CN1CCOCC1)Nc1ccc(Cl)c(NC(=O)c2ccc(Cl)cc2)c1
    -14	-17	102	102
> O=C(CC1CC2CCC1C2)OCC(=O)c1ccc[nH]1 (configuration not stated)
    -2	-5	105	103

The results go on.
Each structure is followed by: Mtb MbtI inh	MenB inh	Polio RdRp inh intensity	Polio RdRp inh
> Fc1ccc(C(c2ccc(F)cc2)N2CCN(C/C=C/c3ccccc3)CC2)cc1
    3&-16&-9	-1&-21&-2	102&101&98&101	97&95&102&100
> O=C(CSc1ccc2nnc(-c3cccc(F)c3)n2n1)NCc1ccccc1
    41	-3	103	101
> O=C(COc1ccc(Cl)cc1Cl)Nc1ncccn1
    -11	-19	105	101
> CN1CCN(C(=O)/C(=C/c2ccc(N(C)C)cc2)NC(=O)c2ccccc2)CC1
    0	-18	108	106
> COc1ccc(CN2C(=O)c3cccnc3C2=O)cc1S(=O)(=O)N(C)Cc1ccco1
    -5	7	101	102
> COC(=O)Nc1ccc(S(=O)(=O)N(CCO)CCO)cc1
    -2	-31	99	99
> Cc1ccccc1C(=O)OCC(=O)N(C)c1ccccc1
    -12	-8	110	101
> Cn1cccc1Cc1nnc(SCC(=O)Nc2ccc3c(c2)OCO3)n1CCc1ccccc1
    0	-19	103	101
> C=CCn1cnnc1SCc1cc(F)ccc1OC
    -1	-12	101	105
> O=S(=O)(NC1CCN(Cc2c(F)cccc2Cl)CC1)c1cccc2nonc12
    -2	3	106	103
> CC(NC1=CC(=O)OC12CCCCC2)c1ccccc1 (configuration not stated)
    -13	-6	99	100
> COc1ccc(-c2onc(C)c2-c2cnn(-c3ccccc3)c2)c(O)c1
    1	-28	107	104
> COC(=O)C(C)N1C(=O)S/C(=C/c2ccc(F)cc2)C1=O (configuration not stated)
    -7	0	102	100
> NS(=O)(=O)c1ccc(NC(=O)c2ccccc2C(=O)N2CCCCC2)cc1
    -11	-8	106	103
> CC(C)C(=O)Nc1noc2ccccc12
    14	17	99	102
> COc1cc(C2NC(=O)C3C4=C(CCC4)SC3N2)ccc1OCC(=O)Nc1ccc(C)cc1 (configuration not stated)
    -20	-3	113	115
> COC(=O)Cc1[nH]n(-c2nc3ccccc3s2)c(=O)c1C(C)=O
    ·	-11	109	107
> Cc1nnsc1C(=O)Nc1ccc(C(N)=O)cc1
    6	-10	101	103
> CC(C)Cn1c(N)c(Br)c(=O)[nH]c1=O
    12	7	101	103
> NC(=O)c1ccsc1NC(=O)c1coc2ccccc2c1=O
    5	2	101	100

(next part)
Each structure is followed by: Mtb MbtI inh	MenB inh	Polio RdRp inh intensity	Polio RdRp inh
> CC(C)c1ccc(CN(C)CC(O)COCc2ccc3c(c2)OCO3)cc1 (configuration not stated)
    -14	-9	100	102
> CCCCC1(c2cc(O)cc(O)c2)SCCS1
    ·	-3	110	102
> Cc1[nH]c(=O)[nH]c(=O)c1CSCC(=O)O
    0	18	104	103
> Cc1c(CCC(=O)O)c(=O)oc2cc3occ(-c4ccccc4)c3cc12
    -22	1	98	99
> CCOC(=O)c1csc(Cc2c(Cl)sc3ccc(Cl)cc23)n1
    -3	-20	104	101
> CC(C)NC(=O)CSCc1csc2c1CCCC2
    1	-4	106	104
> CN=C1S/C(=C/c2cccc(F)c2)C(=O)N1C
    11	9	102	99
> Cc1cc(C(F)(F)F)c(C#N)c(SCC(=O)O)n1
    -20	-7	100	99
> CCC(=O)N(CCN1C(=O)c2ccccc2C1=O)c1ccc(C)cc1C
    3	-7	104	104
> CCn1c(SCc2nc3ccccc3[nH]2)nc2cc(C(=O)OC)ccc2c1=O
    0	-29	103	98
> O=C(CC1CC2CCC1C2)NC1CCCCCCC1 (configuration not stated)
    0	-15	104	104
> Cc1nc2scc(-c3cccs3)c2c(=O)n1CC(=O)OCC#N
    20	-28	93	99
> Cc1ccc(NC(=O)Cn2cc(C#N)c3ccccc32)cc1
    3	56*	101	102
> COc1ccc(-c2noc(CCCC(=O)N(C)C)n2)cc1
    -3	2	103	102
> CCOc1ccc(N(CC)c2nc(-c3ccc(OC)cc3)no2)cc1
    -12	-15	105	102
> CCc1ccc(NC(=O)CSc2ncnc3ccccc23)cc1
    -7	·	100	102
> Cc1nc2ccc(C(=O)OCC(=O)c3ccc4c(c3)OCCO4)cc2nc1C
    2	2	111	106
> CC(=O)Nc1c(-c2ccc(F)cc2)nc2ccccn12
    0	8	99	105
> O=C(CSc1nc2ccccc2[nH]1)c1ccccc1
    -1	·	103	103
> Cc1nc2c(cnn2C(C)C)cc1C(=O)O
    24	-27	91	99

(list continues)
Each structure is followed by: Mtb MbtI inh	MenB inh	Polio RdRp inh intensity	Polio RdRp inh
> CCN(CC)C(=O)Oc1ccccc1
    -3	-30	102	104
> COc1ccc(C(=O)Nc2ccncc2)c(OC)c1
    ·	-14	108	96
> CCn1cc(CN(C)C(=S)Nc2ccc(S(=O)(=O)Nc3ncccn3)cc2)c(C)n1
    13	-14	101	100
> Cc1ccc(C(=O)NCC#N)cc1
    -11	·	105	101
> CCC(C)c1ccccc1NC(=O)C1CCCO1 (configuration not stated)
    -11	-29	102	101
> Cc1cc(Cc2c(O)nc(SCc3ccccc3)[nH]c2=O)ccc1OC(C)C
    4	-15	101	100
> CCC1Nc2ccccc2-c2nnc(SC)nc2O1 (configuration not stated)
    -3	-14	103	100
> CCc1nc2ccccc2n1CCO
    -16	-16	100	97
> CC(=O)N(C)c1nc(N)n(-c2ccccc2)n1
    ·	-1	96	106
> O=C(NCC1CCCO1)Nc1ccccc1 (configuration not stated)
    0	4	101	100
> c1ccc(Cc2nn3cnnc3s2)cc1
    -9	-2	102	102
> COc1ccc(N2CCN(C(=O)C(c3ccccc3)c3ccccc3)CC2)cc1
    -4	-16	96	100
> Cc1ccc(Cl)cc1N1CCN(C(=O)CN2C(=O)COc3ccc(C(C)(C)C)cc32)CC1
    0	-8	104	99
> O=C(CCN1C(=O)c2ccccc2Sc2ncccc21)NCc1ccccc1
    -5	4	97	103
> O=C(NC1CCCC1)C1CCCN(C2=NS(=O)(=O)c3ccccc32)C1 (configuration not stated)
    -11	4	104	105
> Cc1nonc1C(=O)N/N=C/C(C)C
    -7	2	101	102
> O=C(CSc1ccc(-c2cccs2)nn1)NCCc1ccccc1
    -10	-11	101	101
> CSc1nc2n(n1)C(C(C)C)C(C(=O)Nc1ccccc1)=C(C)N2 (configuration not stated)
    66	-12	103	101
> CNC(=O)NC(=O)CSc1cc(C)c2ccccc2n1
    -3	-1	114	104
> N#Cc1ccc(OC(C(F)(F)F)C(F)(F)F)cc1C#N
    1	-23	103	100

Filtered by structure, those above containing a CF3 group (3)
Each structure is followed by: Mtb MbtI inh	MenB inh	Polio RdRp inh intensity	Polio RdRp inh
> FC(F)(F)c1ccc(C=Nc2cc(Cl)cc(Cl)c2)cc1
    -1	-11	103	95
> Cc1cc(C(F)(F)F)c(C#N)c(SCC(=O)O)n1
    -20	-7	100	99
> N#Cc1ccc(OC(C(F)(F)F)C(F)(F)F)cc1C#N
    1	-23	103	100

(more compounds)
Each structure is followed by: Mtb MbtI inh	MenB inh	Polio RdRp inh intensity	Polio RdRp inh
> Cc1cc(C(=O)CC#N)c(C)n1-c1cccc(C(F)(F)F)c1
    -1	·	103	104
> COC(=O)c1ccc(NC(=O)COC(=O)c2ccc3c(c2)OCCO3)cc1
    -2	-29	108	104
> Cc1[nH]c2ccccc2c1CCNCC(C)(C)C
    ·	-25	102	100
> COc1ccc(NCc2nc3ccccc3n2CCOc2ccccc2)cc1
    -10	-36	105	102
> O=C(O/N=C1/CCCc2occc21)c1ccccc1
    18	-12	99	102
> COc1ccc(-c2nc3cccc(C)n3c2NCc2ccco2)cc1OC
    91	-36	101	99
> Cc1ccccc1OCc1nnc(SCC(=O)Nc2sc(C)c(C)c2C#N)n1-c1ccccc1
    -20	-10	102	103
> CS(=O)(=O)N(CC(=O)Nc1ccc2c(c1)OCCO2)c1ccccc1
    -4	-11	105	101
> O=c1cc(-c2ccccc2)nc(Cc2c(Cl)cccc2Cl)[nH]1
    -6	-16	105	107
> Cc1ccc(OC(=O)c2ccco2)c(-n2nc3ccccc3n2)c1
    88	-26	101	102
> N#Cc1cc(-c2nc3ccccc3[nH]2)c(N)n2c1nc1ccccc12
    109	-82	111	100
> CC(=O)Nc1ccc2c(c1)nc1n2CCN(C(C)c2ccccc2)C1 (configuration not stated)
    109	-1	104	100
> S=c1nccc(-c2csc(COc3ccccc3Cl)n2)[nH]1
    0	-83	110	106
> CCN1CCCc2cc(CN(C(=S)Nc3ccc(OC)cc3)C3CCCC3)ccc21
    -14	-29	106	101
> COC(=O)C1CCN(C(=O)C(C)(C)C)CC1
    -3	8	111	97
> Cc1[nH]nc(N)c1C#N
    0	2	105	103
> C=CCNC(=O)c1ccc2c(=O)n(Cc3ccco3)c(=S)[nH]c2c1
    1	-20	101	102
> CC1CN(CC(=O)Nc2ccc3c(c2)CCC3)CC(C)O1 (configuration not stated)
    -13	-25	109	104
> c1ccc(CNC2C3CC4CC(C3)CC2C4)nc1 (configuration not stated)
    3	27	101	99

In the list so far, three have bromine:
Each structure is followed by: Mtb MbtI inh	MenB inh	Polio RdRp inh intensity	Polio RdRp inh
> O=C(O)CNC(=O)c1ccc(NS(=O)(=O)c2ccc(Br)cc2)cc1
    19	-11	108	103
> C#CCn1c(O)c(N=NC(=O)c2ccncc2)c2cc(Br)ccc21
    -5	-54	97	102
> CC(C)Cn1c(N)c(Br)c(=O)[nH]c1=O
    12	7	101	103
